From PubChem
Rce1 inh – yeast Rce1p protease inhibitors, primary screen, biochemical, fluorescence, cell-free homogeneous; CAAX prenyl protease 2 (Saccharomyces cerevisiae (strain ATCC 204508 / S288c)), Q03530; yeast membranes, quenched prenylated peptide cleavage fluorescence; calls only; hit rate 0.27% among 290,000;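 active means fall in fluorescence gain of 50% or more versus controls, with final raw signal at or below 3038400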;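 further: plate controls were neutral control wells for no effect and wells lacking membranes for full effect; tested at 10 µM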
CSC inhib – cancer stem cell viability inhibitors, primary screen, luminescence; cancer stem cell-like cells viability; inhibition, % at 7.5 µM; hit rate 1.1% among 300,000; AID 2717, 2010;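 active means mean at 75% or more and at least half the replicates too; tested in HMLE shEcad cells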;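 further: 0% = median of negative and 100% = median of positive control wells; the first replicate is given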
MT1-MMP act inh – blockers of MT1-MMP proenzyme processing, primary screen, HT1080 RFP-PRO-GFP cells, GFP/RFP fluorescence. hit rate 0.061% among 360,000. GFP/RFP ratio change, % at 20 µM. AID 651647, 2012. GFP/RFP ratio fluorescence, overnight; percent of plate control window, DMSO zero;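 active means GFP/RFP ratio change of at least 30% with cell ATP level not reduced by more than half and red fluorescence within 50% of control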; further: strong numbers were not always called active
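Assay system: HT1080 RFP-PRO-GFP cells | Dosing: 20 µM single dose, 1% DMSO | Incubation: Cells overnight before dosing, compound overnight, 37 °C, 5% CO2 | Evaluation: GFP/RFP fluorescence ratio | Control set: DMSO-only wells and HT1080 RFP-L50D-GFP cell wells as references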
eIF4H FP inh – human eIF4H binding inhibitors, primary screen, translation initiation inhibitor project, biochemical, uHTS, fluorescence polarization. eIF4H fluorescence polarization binding assay. AID 2012, 2009. inhibition, % at 35 µM. hit rate 0.94% among 290,000;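 active means 50% or more with normal probe brightness, or confirmed in later tests; about a fifth of its hits are not listed in these tables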;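 further: calls also rest on retests at 20 µM and on dose response follow-up; 0% = protein and probe with vehicle and 100% = probe without protein; strong numbers were not always called active; many hits fall short of the cut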
PABP polyA inh – PABP poly(A) RNA binding inhibitors, primary screen, biochemical, fluorescence polarization, uHTS; hit rate 1% among 290,000; Polyadenylate-binding protein 1 (Homo sapiens), P11940; inhibition, % at 35 µM;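 active means 50% or more with normal probe brightness, or confirmed in later tests; about a fifth of its hits are not listed in these tables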;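 further: calls also rest on retests at 20 µM and on dose response follow-up; controls were probe without protein and protein plus probe with vehicle; some compounds called inactive have numbers as strong as hits; many hits fall short of the cut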
Target sequence (P11940 whole entry, looked up): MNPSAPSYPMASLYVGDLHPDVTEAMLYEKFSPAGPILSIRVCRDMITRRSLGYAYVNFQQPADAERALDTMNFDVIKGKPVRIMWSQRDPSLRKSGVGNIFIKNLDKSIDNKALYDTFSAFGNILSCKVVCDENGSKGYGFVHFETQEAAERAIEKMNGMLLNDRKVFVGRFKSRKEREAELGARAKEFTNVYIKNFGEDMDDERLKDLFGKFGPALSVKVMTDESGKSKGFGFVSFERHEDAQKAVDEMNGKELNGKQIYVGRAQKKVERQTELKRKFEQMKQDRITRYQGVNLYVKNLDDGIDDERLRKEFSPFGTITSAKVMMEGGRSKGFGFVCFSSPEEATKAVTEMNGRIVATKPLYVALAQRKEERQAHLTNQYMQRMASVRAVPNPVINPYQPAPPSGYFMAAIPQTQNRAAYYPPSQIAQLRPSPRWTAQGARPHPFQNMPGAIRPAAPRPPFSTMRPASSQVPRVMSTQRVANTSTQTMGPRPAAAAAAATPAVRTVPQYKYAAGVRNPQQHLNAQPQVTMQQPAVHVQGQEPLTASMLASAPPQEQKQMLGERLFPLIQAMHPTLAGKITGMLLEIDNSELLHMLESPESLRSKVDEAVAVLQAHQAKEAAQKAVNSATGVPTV
Env fusion inh – inhibitors of HIV-1 Env-driven cell-cell fusion, primary screen, HeLa-JRFL effector, CEM21 target cells, luciferase | inhibition, % at 12.3 µM | hit rate 1.1% among 360,000;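 active means mean replicate inhibition score of at least 50 and every replicate individually at or above 50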;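 further: 0% = plate neutral controls and 100% = maraviroc near 300 nM; one replicate is shown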
UUG fidelity – modulators of yeast start codon fidelity, primary screen, whole organism, S. cerevisiae, single point, plate reader | hit rate 0.13% among 350,000 | AID 602363, 2012 | activity score, % at 18.7 µM | S. cerevisiae UUG-firefly luciferase reporter, luminescence/redox ratio;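 active means replicate mean at a twofold rise or more, about +100% in these data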;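 further: firefly luciferase made from a UUG start codon reports start codon fidelity; reporter light over untreated wells divided by growth signal over untreated wells; some hits fall short of that in this replicate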
eIF4H FP inh retest – also measured in eIF4H FP inh; calls as there; inhibition, %; compound at 20 µM; confirmation average;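 mean of two retest wells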
PABP polyA inh retest – further read-out of PABP polyA inh, marked with its call; inhibition, %; compound at 20 µM; confirmation repeats;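 mean of two retest wells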
MT1-MMP act inh RFP – also measured in MT1-MMP act inh; calls as there; RFP signal change, %; measured here: RFP expression control read;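 0 = vehicle wells; hits needed this value within 50% of zero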
Active calls of the source: *; i = inactive; x = no result given.

SMILES	Rce1 inh	CSC inhib	MT1-MMP act inh	MT1-MMP act inh RFP	eIF4H FP inh	PABP polyA inh	Env fusion inh	UUG fidelity	others
CNC(=O)/C(C#N)=C/c1c(N(Cc2ccccc2)Cc2ccccc2)nc2c(C)cccn2c1=O	i	17	-8	-11	6	-3	x	-5
CCc1ccccc1NC(=O)c1cccc(Oc2ccc([N+](=O)[O-])cc2Cl)c1	i	x	-2	-7	10	14	21	x
COCCNC(=O)C(c1ccc(O)cc1)N(Cc1ccco1)C(=O)CCC(=O)Nc1ccccn1 (stereo unspecified)	i	2	1	3	-13	9	-8	2
COC(=O)C1=C(C(=O)OC)[C@@H]2N(Cc3ccccc3)c3ccccc3[C@@]23C[C@@H](C(=O)OC)N(C(=O)c2cccs2)C3=N1	i	33	-4	-4	3	6	-29	-9
COc1cc(/C=N/O)cc(Br)c1OS(=O)(=O)c1ccc(C)cc1	i	-11	-11	-19	-4	0	9	5
CC(=O)Nc1ccc(Oc2ccc(-c3noc(C)n3)cc2)cc1	i	2	-1	-9	3	-2	x	-12
CCCn1c(SCC(=O)N2CCc3ccccc32)nnc1-c1ccncc1	i	x	x	x	-4	-7	-25	x
C#CCOCCOCCOCCNc1nc(N2CCN(C(=O)[C@H](CCC(=O)O)n3cc(C(N)CO)nn3)CC2)nc(N2CCN(C(=O)[C@H](CCCCN)n3cc(C(N)CC(C)C)nn3)CC2)n1 (stereo partly specified)	i	x	x	x	32	50	x	x
CN(CC(=O)Nc1n[nH]c(=S)s1)S(=O)(=O)c1cccc2cccnc12	i	-11	0	0	-4	5	8	-29
Cc1ccc(CNC(=O)CSc2nc3n[nH]c(C)c3c(=N)n2-c2cccc(C)c2)cc1	i	x	14	-1	4	-2	7	-13
CCC1=NN2C(=N)/C(=C\c3ccc(OCc4cc(=O)n5nc(CC)sc5n4)c(OC)c3)C(=O)N=C2S1	i	x	2	1	82	8	7	-21	eIF4H FP inh retest=-8;PABP polyA inh retest=-5
CCC(NS(=O)(=O)c1ccc(C)cc1)C(=O)Nc1ccc(NC(C)=O)cc1 (stereo unspecified)	i	13	3	1	-1	2	x	-15
CCCCNC(=O)C1(C)CCN1C(=O)c1ccc(F)c(C)c1 (stereo unspecified)	x	x	5	7	x	x	26	-9
CC(C)N1CCC(N2CCN(Cc3nc4ccccc4s3)CC2CCO)CC1 (stereo unspecified)	i	-6	1	5	21	23	-7	x
COc1ccccc1CN(Cc1nc2ccccc2c(=O)[nH]1)S(=O)(=O)c1ccc(C)cc1	i	x	x	x	-2	-7	x	x

Two records drawn at random from the list so far:
SMILES	Rce1 inh	CSC inhib	MT1-MMP act inh	MT1-MMP act inh RFP	eIF4H FP inh	PABP polyA inh	Env fusion inh	UUG fidelity	others
C#CCOCCOCCOCCNc1nc(N2CCN(C(=O)[C@H](CCC(=O)O)n3cc(C(N)CO)nn3)CC2)nc(N2CCN(C(=O)[C@H](CCCCN)n3cc(C(N)CC(C)C)nn3)CC2)n1 (stereo partly specified)	i	x	x	x	32	50	x	x
CCC(NS(=O)(=O)c1ccc(C)cc1)C(=O)Nc1ccc(NC(C)=O)cc1 (stereo unspecified)	i	13	3	1	-1	2	x	-15

The listing picks up, repeating the three entries before the break.
SMILES	Rce1 inh	CSC inhib	MT1-MMP act inh	MT1-MMP act inh RFP	eIF4H FP inh	PABP polyA inh	Env fusion inh	UUG fidelity	others
CCCCNC(=O)C1(C)CCN1C(=O)c1ccc(F)c(C)c1 (stereo unspecified)	x	x	5	7	x	x	26	-9
CC(C)N1CCC(N2CCN(Cc3nc4ccccc4s3)CC2CCO)CC1 (stereo unspecified)	i	-6	1	5	21	23	-7	x
COc1ccccc1CN(Cc1nc2ccccc2c(=O)[nH]1)S(=O)(=O)c1ccc(C)cc1	i	x	x	x	-2	-7	x	x
CCOC(=O)c1c(N)sc2c1CCC(CC)C2 (stereo unspecified)	i	-6	-9	-5	7	-2	x	-5
CC(=O)Nc1ccc(S(=O)(=O)N2CC3(C)CC2CC(C)(C)C3)cc1 (stereo unspecified)	i	-6	2	5	5	-4	8	x
CCC(C)[C@H](NC(=O)N1CC(=O)Nc2ccccc21)C(=O)N1CCC[C@@H]1C(=O)O (stereo partly specified)	i	-11	1	0	-6	10	x	-13
CCS(=O)(=O)CCSC(=N)N	i	8	3	2	5	1	x	-4
COc1ccc(NC(=O)C2CCN(C(=O)c3cccs3)CC2)cc1	i	-11	-1	0	0	-2	-8	-2
CCOc1cc(N2CCOCC2)c(OCC)cc1NC(=O)COC(=O)CCc1c[nH]c2ccccc12	i	-8	5	4	-5	-2	x	5
CC1CN(C(=O)/C(C#N)=C2\N=C(NC(=O)c3ccccc3Cl)c3ccccc32)CC(C)O1 (stereo unspecified)	x	x	x	x	-15	3	5	x
CCOC(=O)c1ccc(N=C2S/C(=C\c3cc(C)n(-c4cccnc4)c3C)C(=O)N2C)cc1	i	1	-12	-10	-3	4	x	-5
Cc1ccc(Cn2ccnc2C(=O)Nc2ccccc2)cc1	i	25	-11	-1	-7	6	-8	-9
Cc1[nH]c(=S)[nH]c(=O)c1CCOc1ccccc1	i	15	0	-2	-2	-5	x	-23
Cc1ccc(NC(=O)c2cc(-c3ccccc3)nn2-c2ccccc2)c(Br)c1	i	61	0	-7	3	10	-6	x
O=C(Nc1ccc2c(c1)OCCO2)C(CCc1ccccc1)N1CCN(C/C=C/c2ccccc2)CC1 (stereo unspecified)	x	x	4	1	x	x	-9	-4
O=[N+]([O-])c1ccc(OCc2cnc(Cl)s2)cc1	x	x	0	0	-2	-6	-26	x
CCCOc1ccc2[nH]c(C(=O)N/N=C/c3cc(OC)c(OC)c(OC)c3)cc2c1	i	21	10	-3	2	8	-3	-1
O=C(c1cc2ccccc2cc1O)N1CCN(c2ccc([N+](=O)[O-])cc2)CC1	i	-1	-2	-5	x	x	20	-15
NCCCC[C@H](N)c1nnc([C@H](CCC(=O)O)NC(=O)C2CCNCC2)o1	i	-1	0	-1	3	46	3	-15
O=C(O)CCn1nnc(-c2ccccc2)n1	i	-11	2	2	-3	-16	8	x
CC1(C)CC(=O)C=C(c2ccccc2-c2ccc(S(C)(=O)=O)cc2)C1=O	x	x	2	2	x	x	1	2
COc1cccc(C2C(C#N)=C(N)OC3=C2C(=O)CC(c2ccco2)C3)c1OCc1ccc(F)cc1 (stereo unspecified)	i	-3	-7	-9	9	16	-65	-20
CCCNC(=O)c1cc(C2CCCN(S(=O)(=O)c3ccccc3)C2)on1 (stereo unspecified)	x	x	0	-4	x	x	13	2
COc1ccc(NC(=O)CSc2nc3ccsc3c(=O)n2CCC(=O)O)c(OC)c1	i	-3	2	0	-14	-1	-3	5
CCn1nc(C(=O)OCC(=O)N(CC(C)C)c2c(N)n(Cc3ccccc3)c(=O)[nH]c2=O)c2ccccc2c1=O	i	-1	0	-2	x	x	2	-9
Cc1nnc(Cc2ccccc2)c2n[nH]c(C)c12	x	x	0	0	x	x	6	-22
CCOc1ccc(-n2cc(C(=O)N3CCCCCC3)c3cc(OC)c(OC)cc3c2=O)cc1	x	15	-4	-12	-10	0	-8	3
O=C(/C=C/c1ccc(-c2ccccc2[N+](=O)[O-])o1)c1ccco1	i	3	44	52	69	17	-2	x	eIF4H FP inh retest=0;PABP polyA inh retest=0
CC(C)N(C)CCOC(=O)c1ccccc1Br	i	11	1	0	2	-2	x	x
Oc1ccccc1/C=N/Nc1nn[nH]n1	i	-5	1	4	4	-14	-10	x
C/C(CCc1oc2ccc(Br)cc2c1-c1ccc(C)o1)=N/O	i	-6	-5	5	-13	-1	10	-16
COc1ccc(CNC(=O)C2CC(=O)N(c3ccc(OCC(=O)N4C(C)CCCC4C)cc3)C2)cc1 (stereo unspecified)	i	-6	x	x	-9	-6	x	-21
CCN(Cc1nc2ccccc2c(=O)[nH]1)C(=O)CN1C(=O)NC2(CCCCC2C)C1=O (stereo unspecified)	x	x	0	2	x	x	-2	-3
COc1ccc(OC)c(S(=O)(=O)NC2CCSc3ccccc32)c1 (stereo unspecified)	i	-6	-4	-3	-11	3	14	-4
COc1ccc(CNC(=O)C2CC(=O)N(C3CCCC3)C2)cc1 (stereo unspecified)	i	-27	-4	0	12	7	7	-13
Cc1cccc(C=Nc2ccccc2C(N)=O)c1	i	-1	-4	-8	1	-4	x	-10
COc1ccc(-c2nnn(CC(=O)N3CCOCC3)n2)cc1	i	-8	0	5	-6	-3	x	6
CC(=O)c1c(C)n(-c2cccc(Cl)c2)c2ccc(O)cc12	i	-12	-14	-9	-6	10	26	-19
COc1cccc(CNC(=O)CCC2CCCN(Cc3ccc(OC(F)F)cc3)C2)c1 (stereo unspecified)	i	3	1	-3	-9	-9	27	x
COC(=O)c1ccccc1NC(=O)c1ccnn1C	i	-5	1	2	-11	-7	-17	x
COCCN(CCOC)S(=O)(=O)NC[C@H]1O[C@@H](n2cnc3c(N)ncnc32)[C@H](O)[C@@H]1O	x	2	-1	3	x	x	4	-14
O=C(NC(=S)NNC(=O)c1ccccc1O)c1cccc([N+](=O)[O-])c1	i	-12	-2	-7	14	3	1	-10
N#Cc1c2c(c(-c3ccco3)[nH]c1=O)CCCC2	x	2	-42	15	10	15	x	x
Cc1cc(C)c(C)c(S(=O)(=O)NCc2ccc(C(=O)N3CCCC3)cc2)c1C	i	-20	0	3	-8	-7	-12	-24
CN(NS(=O)(=O)c1ccc(Cl)cc1)c1nc(C(F)(F)F)nc2ccccc12	x	60	4	5	-2	3	22	x
Nc1nc2nccc(-c3ccc(Cl)cc3)n2n1	x	-3	4	3	2	4	x	-21
C=CCSc1nnc(CC(OC)OC)n1-c1ccccc1	i	-14	0	-1	5	11	-8	x
CCCc1c(C(=O)N/N=C/c2ccc(OC)c(OCc3ccccc3)c2)nnn1-c1nonc1N	i	1	-1	-17	-5	3	4	-15
O=C(Nc1ccccc1N1CCN(C(=O)c2ccccc2)CC1)c1ccc([N+](=O)[O-])o1	i	x	0	-3	-12	11	-20	-9
C=C(C)CSc1nnc2n(C)c(=O)c3c4c(sc3n12)CCC4	i	-14	2	-3	-12	0	1	-8
CC(C)CCOc1ccc(C(=O)N2CCN(c3ncccn3)CC2)cc1	i	16	-1	1	-14	2	7	-3
CCOC(=O)Nc1nc(-c2ccc(Cl)cc2Cl)cs1	i	21	-1	3	17	0	-4	x
COc1ccc([N+](=O)[O-])cc1NS(=O)(=O)c1ccc(Cl)c(C(=O)Nc2sc3c(c2C#N)CCCCC3)c1	i	24	x	x	-1	3	-5	x
COc1cc(CN2CCN(S(=O)(=O)c3ccc(F)cc3)CC2)cc(OC)c1OC	i	-15	0	2	2	34	3	-7
COc1ccc2c(c1)CCc1c(C(=O)NCCCn3ccnc3)noc1-2	i	-7	5	4	-12	-7	3	x
O=C(Nc1ncccn1)c1cc(-c2cccc(Br)c2)nc2ccccc12	i	-4	-1	-7	0	21	x	-8
CCc1cccc(C)c1NC(=O)COC(=O)C1CCN(S(=O)(=O)c2ccccc2)CC1	i	3	-3	-3	x	x	x	-11
CCC(=O)n1nc(-c2ccc(Cl)cc2)nc1NCc1ccccc1	i	52	6	-6	8	5	-24	-17
CCOC(=O)c1c(NC(=O)c2cccc(N3C(=O)CCC3=O)c2)sc2c1CCN(CC)C2	i	-10	-9	-1	-8	5	-11	7
CC1(C)CC(=O)C2=C(C1)N(c1ccc(F)cc1)C(=O)C2(O)C(F)(F)F (stereo unspecified)	i	-7	-4	1	-8	1	-5	-9
CCOC(=O)c1cnn(CCOC(=O)c2cccc(F)c2)c1NC(=O)c1cccc(F)c1	i	-7	3	4	3	-9	x	-7
